CtBP-E1A inh – blocks the CtBP interaction with E1A; 340,000 compounds, 0.49% hits; activity change, % (test concentration not listed); AID 651724; AlphaScreen GST-E1A/His-CtBP binding, 1536-well; stronger effect = lower value; control for the full effect not named in the record; in the data active means activity change below about -65%; inconclusive means about -30% to -65%; inactive means above about -30%; also: % is scaled to controls: 0 for no effect and ±100 for the full control effect
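AlphaScreen with 125 nM GST-E1A and 125 nM His-CtBP (5X stocks) in Tris pH 8.0, 300 mM NaCl, BSA, Tween 20, TCEP. Compounds preincubated 2 h at 37 deg C, then glutathione donor/nickel acceptor beads added for 1 h at 37 deg C in dark.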
Sfp inh – blocks B. subtilis Sfp PPTase activity; Q9F4F7; Biochemical Sfp PPTase activity, qHTS; Potency, µM, without a hit: max response, negative = inhibition, usual class: inhibitors; 310,000 compounds, 3.5% hits; AID 1490; active = well fitted inhibition curve with a large enough effect; inconclusive = small, poorly fitted or top-dose-only effect, or another doubt; inactive = no such curve, though single readings can be large or run the other way;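 also: the enzyme is Sfp with the accession as filed and its product quenches rhodamine fluorescence; potency is read from the fitted curve at half-maximal effect; 0% = enzyme reaction without inhibitor and -100% = no enzyme wells; top concentration of the series not given in the record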
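Sfp 15 nM + cpd, 15 min RT; start w/ rhodamine-CoA 5 uM, BHQ-2-YbbR 12.5 uM (final); 50 mM Hepes pH 7.6, 10 mM MgCl2, 0.01% NP-40, 0.01% BSA; read 525/598 nm at 0 and 30 min.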
PINK1 expr mod – changes PINK1 expression | 410,000 compounds, 0.2% hits | AID 624263 | Potency, µM (highest dose often 76.6 µM), inactives show at the highest dose activation (PINK1 increase), usual class: activators | PINK1 immunofluorescence, high-content cytometry, 24 h; active = well fitted activation curve with a large enough effect; inconclusive = small, poorly fitted or top-dose-only effect; inactive = flat fitted curve, though single readings scatter; cell line not stated here;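 also: potency is read from the fitted curve at half-maximal effect; % of control where 0% means no effect; nearly all actives have a fitted effect of over 65% in size; a mitochondrial uncoupler was the plate control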
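Measures PINK1 amount and localization on or inside mitochondria by immunofluorescence. Stable cells get compounds at 5 concentrations for 24 hours before fixation and staining; CCCP controls included.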
D2 potentiator – potentiates the human D2 dopamine receptor allosterically; P14416; DiscoveRx D2 beta-arrestin cells, luminescence, 90 min; 100% = 57 uM dopamine signal; potentiation, % (concentration not given with the values); 360,000 compounds, 0.23% hits; active = potentiation of 50% or more; inconclusive = 30% to 50%; inactive = 30% or less;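 also: tested on top of an EC20 dose of dopamine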
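PathHunter D2 cells, attached overnight at 37 deg C, received compound in DMSO plus dopamine at EC20 (50 nM final) for 90 min at 37 deg C. Beta-arrestin recruitment was read as luminescence after 1 h with detection reagent at ambient temperature.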
D2 agonist – agonists of human D2 dopamine receptor (beta-arrestin); DiscoveRx PathHunter D2 beta-arrestin, luminescence, 90 min; 100% = 57 uM dopamine signal; activation, % (no concentration beside the values); 360,000 compounds, 0.084% hits; in the data active = activation above about 40%; inconclusive = about 15% to 40%; inactive = below about 15%; also: compound concentration not given in the record; the text of the record calls up to 30% inactive
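Agonist mode: compounds alone added to overnight-plated D2 PathHunter cells for 90 min at 37 C, with 57 uM final dopamine (EC100) defining full response. Beta-arrestin recruitment detected by chemiluminescent reagent, read after 1 h at ambient temperature.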
Six1-Eya2 inh – blocks human Six1 binding to Eya2; AID 651725; 360,000 compounds, 0.56% hits; AlphaScreen GST-Six1/His-Eya2 binding, biochemical; stronger effect = lower value; control for the full effect not named in the record; Q15475+O00167; activity change, % (no concentration beside the values); in the data active = activity change below about -65%; inconclusive = about -30% to -65%; inactive = above about -30%; also: % is scaled to controls: 0 for no effect and ±100 for the full control effect
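Compounds are tested against tagged Six1 and Eya2 proteins bridged by glutathione donor and nickel acceptor beads; after a one-hour incubation at 37 °C without light, AlphaScreen emission is recorded.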
TRPV1 potentiator – human TRPV1 potentiation; potentiation, % at 8.33 µM; 320,000 compounds, 0.02% hits; Q8NER1; TRPV1-expressing cells, Fluo-8 calcium influx, capsaicin EC20 potentiation; host cell line not named in the record; control for the full effect not named in the record; AID 540277; active means potentiation above 80%; inconclusive means 30% to 80%; inactive means below 30%; also: 0% is about no effect
Target sequence (Q8NER1 whole entry, looked up): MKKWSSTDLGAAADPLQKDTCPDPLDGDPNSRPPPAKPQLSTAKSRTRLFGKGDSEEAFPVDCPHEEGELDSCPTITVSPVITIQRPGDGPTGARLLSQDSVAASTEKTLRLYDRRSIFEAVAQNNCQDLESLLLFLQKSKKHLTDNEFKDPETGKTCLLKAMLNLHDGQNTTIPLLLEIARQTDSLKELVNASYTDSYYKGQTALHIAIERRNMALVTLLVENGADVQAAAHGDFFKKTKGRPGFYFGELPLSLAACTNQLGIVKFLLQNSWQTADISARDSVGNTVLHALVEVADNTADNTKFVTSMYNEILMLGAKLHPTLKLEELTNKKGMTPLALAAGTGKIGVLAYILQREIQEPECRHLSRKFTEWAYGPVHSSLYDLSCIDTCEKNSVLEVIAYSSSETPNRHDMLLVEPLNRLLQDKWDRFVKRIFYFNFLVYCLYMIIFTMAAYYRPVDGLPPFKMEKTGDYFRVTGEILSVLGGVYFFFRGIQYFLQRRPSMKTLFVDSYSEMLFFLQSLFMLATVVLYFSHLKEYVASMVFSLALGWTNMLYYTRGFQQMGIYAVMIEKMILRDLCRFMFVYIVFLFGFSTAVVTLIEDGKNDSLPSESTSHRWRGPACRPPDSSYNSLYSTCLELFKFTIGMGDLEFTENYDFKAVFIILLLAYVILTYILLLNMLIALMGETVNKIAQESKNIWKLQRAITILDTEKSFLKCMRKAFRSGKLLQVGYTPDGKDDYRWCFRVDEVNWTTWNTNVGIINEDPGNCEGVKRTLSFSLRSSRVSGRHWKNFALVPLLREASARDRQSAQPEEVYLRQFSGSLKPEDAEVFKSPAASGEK
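TRPV1-expressing cells were cultured overnight at 35.5C and loaded with Fluo-8 calcium dye for 40 to 90 min at room temperature. After a 10 s baseline, compound was added and calcium influx was read kinetically for 3 min (ex 480/em 520 nm).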
Numbers without * were called inactive; ? = inconclusive; . = not tested or not shown; [ ] = dose if it differs, or a comment. An unsorted share of the library. Share with any hit: about 3.7%.

SMILES | CtBP-E1A inh | Sfp inh | PINK1 expr mod | D2 potentiator | D2 agonist | Six1-Eya2 inh | TRPV1 potentiator
COc1ccc([N+](=O)[O-])cc1NC(=O)/C=C/C(=O)O | 3 | 9% | 4.0% | 9 | -7.6 | 12 | 0
O=C(CSc1nnnn1Cc1ccccc1)NCCc1ccccc1 | 3 | 8% | -0.5% | 2 | -3.0 | 2 | 5
O=C(O)/C=C/C(=O)Nc1ccc(Cc2ccc(NC(=O)/C=C/C(=O)O)cc2)cc1 | -1 | -9% | 2.9% | 3 | 0.5 | 6 | 18
Nc1nc(-c2ccc3ccccc3c2)c(C2(O)C(=O)Nc3c(Br)cc(F)cc32)s1 (stereo not given) | 6 | 11% | 3.5%[38.3 µM] | -10 | -1.4 | -3 | -1
COc1ccc(N2CC(C(=O)Nc3nnc(SCC(=O)N4CCOCC4)s3)CC2=O)cc1 (stereo not given) | -7 | 50µM* | 0.3% | -26 | -2.0 | -13 | -19
Cc1ccc(C)c(N2CCN(C(=S)Nc3ccc4nc(N5CCN(C)CC5)cc(C)c4c3)CC2)c1 | -3 | -27% | 1.2% | -25 | -0.1 | 4 | 13
Cc1ccc(S(=O)(=O)NCC(=O)OCc2nnc(-c3ccccc3)o2)cc1C | -2 | 8% | 2.4% | 0 | 2.1 | 5 | 5
CCCCOC(=O)N1CCOCCOCCOCC1 | 1 | 16% | -1.6% | -1 | -1.9 | 15 | 21
COc1ccc(-c2cc(CCCC(=O)NCCc3ccccc3)no2)cc1 | -3 | -12% | -0.2% | 0 | -0.9 | 1 | 18
Cc1cc(NS(=O)(=O)c2ccc(N3C(=O)C4C5C=CC(C5)C4C3=O)cc2)nc(C)n1 (stereo not given) | 3 | 0% | 1.0% | -5 | -6.4 | -3 | -3
COc1cccc(-c2cc(C(=O)NCCCn3ccnc3)c3ccccc3n2)c1 | 1 | 23% | 0.5% | -26 | -1.9 | -15 | 0
COc1ccc(OCCSc2ncccn2)cc1 | -10 | 9% | 14%[38.3 µM] | -6 | -0.9 | -3 | -8
O=C(CCC1CCCCC1)Nc1cc(Cl)ccc1N1CCOCC1 | 8 | . | 5.9% | 1 | -2.4 | 1 | 4
COc1ccccc1N1CCN(Cc2cc(=O)oc3cc(C)ccc23)CC1 | 2 | . | 0.1% | -13 | -3.8 | 11 | .
O=C(NC1CC1)C1=C[C@@H](C2CC2)C[C@@H](OCc2ccc(CO)cc2)O1 | 5 | 5% | 5.8% | 0 | 0.4 | 11 | -1
CC(=O)c1n[nH]nc1Nc1nc(C)cc(C)n1 | 8 | 28µM* | -0.6%[38.3 µM] | 2 | -0.2 | 3 | 0
CCc1cc[n+](/C(C(=S)Nc2cccc(C)c2)=C(/[O-])c2ccc(C)c([N+](=O)[O-])c2)cc1 | -1 | -10% | 3.6% | -20 | 1.7 | -15 | 30
CCOc1cccc(CN2CCCC(C(=O)Nc3cccc(-n4cccn4)c3)C2)c1 (stereo not given) | -4 | 0% | -0.4% | -40 | -3.8 | -7 | 2
COc1cccc(C(Nc2ccccn2)c2c(NC(=O)c3ccco3)sc(C)c2C)c1 (stereo not given) | -20 | -5% | -0.7% | -8 | -0.3 | -15 | 7
CCOC(=O)c1ccccc1NC(=O)CSc1nnnn1C | -3 | -5% | -0.6% | -4 | -1.3 | 12 | ?

Entries of single compounds from above. Screens in order: CtBP-E1A inh | Sfp inh | PINK1 expr mod | D2 potentiator | D2 agonist | Six1-Eya2 inh | TRPV1 potentiator
CCOC(=O)c1ccccc1NC(=O)CSc1nnnn1C is listed with -3 | -5% | -0.6% | -4 | -1.3 | 12 | ?
COc1cccc(-c2cc(C(=O)NCCCn3ccnc3)c3ccccc3n2)c1 is listed with 1 | 23% | 0.5% | -26 | -1.9 | -15 | 0

Quoted at random: 4 records from the list.
SMILES | CtBP-E1A inh | Sfp inh | PINK1 expr mod | D2 potentiator | D2 agonist | Six1-Eya2 inh | TRPV1 potentiator
CCOc1cccc(CN2CCCC(C(=O)Nc3cccc(-n4cccn4)c3)C2)c1 (stereo not given) | -4 | 0% | -0.4% | -40 | -3.8 | -7 | 2
COc1cccc(C(Nc2ccccn2)c2c(NC(=O)c3ccco3)sc(C)c2C)c1 (stereo not given) | -20 | -5% | -0.7% | -8 | -0.3 | -15 | 7
COc1ccc([N+](=O)[O-])cc1NC(=O)/C=C/C(=O)O | 3 | 9% | 4.0% | 9 | -7.6 | 12 | 0
CC(=O)c1n[nH]nc1Nc1nc(C)cc(C)n1 | 8 | 28µM* | -0.6%[38.3 µM] | 2 | -0.2 | 3 | 0

Copied from the list:
Under TRPV1 potentiator, `CCc1cc[n+](/C(C(=S)Nc2cccc(C)c2)=C(/[O-])c2ccc(C)c([N+](=O)[O-])c2)cc1` has the entry 30
Under D2 potentiator, `CCOc1cccc(CN2CCCC(C(=O)Nc3cccc(-n4cccn4)c3)C2)c1` (stereo not given) has the entry -40

(more compounds)
SMILES | CtBP-E1A inh | Sfp inh | PINK1 expr mod | D2 potentiator | D2 agonist | Six1-Eya2 inh | TRPV1 potentiator
c1ccc(CNn2nnc3ccccc32)cc1 | 13 | . | -0.2% | 0 | -4.1 | 0 | .
Cc1cccn2c(=O)c3cc(C(=O)NCc4cccnc4)c(=N)n(CC4CCCO4)c3nc12 (stereo not given) | -9 | 16% | 0.8% | -10 | -0.3 | -8 | 0
CCCN(CCC)CC(C)(C)NS(=O)(=O)c1ccc(Cl)cc1 | 5 | -28% | 5.6% | -5 | -0.8 | 13 | -22
CCN(CC)S(=O)(=O)c1ccc(N2CCOCC2)c(NC(=O)c2cccc(C#N)c2)c1 | 7 | -1% | 0.4% | 1 | 0.2 | -2 | 0
CC(C)CC(=O)Nc1ccc(-c2nc3ccccc3c(=O)o2)cc1 | -21 | 7% | ? | 3 | -3.6 | ? | 1
Brc1cc2c(cc1CN1CCc3ccccc3C1)OCO2 | . | -12% | ? | -48 | -4.0 | 3 | 14
O=[N+]([O-])c1ccc(C=NNc2ccc(S(=O)(=O)O)cc2)cc1 | -3 | . | 1.1% | -22 | -1.7 | -17 | .
Cc1ccccc1OCC(=O)Nc1cccc(N(C)S(C)(=O)=O)c1 | 6 | 6% | 1.6%[38.3 µM] | 1 | 0.0 | -1 | 7
Cc1c(C)n(C)c2ccc([N+](=O)[O-])cc12 | -7 | -1% | -0.7% | -8 | -3.2 | -1 | -12
CCN1C[C@@H]2[C@@H]3C(=O)N(Cc4ccccc4)C(=O)[C@@H]3[C@](C)(C1=O)N2C(=O)c1ccccc1 | 7 | . | 0.9% | -1 | -0.5 | 8 | .
CCOC(=O)Cc1csc(NC(=O)CSc2nnnn2-c2ccc(F)cc2)n1 | 10 | -7% | . | -15 | -3.4 | -2 | 11
N#CCCN(C(=O)COC(=O)c1ccc2ccccc2n1)c1ccccc1 | 0 | . | 2.2% | -2 | 4.5 | 2 | 5
Cc1ccc(S(=O)(=O)CCc2nc3ccccc3s2)cc1C | 5 | 1% | -2.2% | 2 | -1.1 | 8 | -10
Nc1nn(S(=O)(=O)c2ccccc2)cc1-c1cccc([N+](=O)[O-])c1 | . | -16% | 0.1% | 12 | ? | -7 | 7
CCC(=O)N1CCc2cc(Br)cc(S(=O)(=O)NCCCN(C)Cc3ccccc3)c21 | 2 | 5% | -0.3% | -5 | -1.2 | 3 | 3
COc1ccc(S(=O)(=O)N2CCCCCC2)cc1NC(=O)CCNC(=O)c1ccc(Cl)cc1 | -8 | . | 1.4% | -15 | -2.5 | 2 | .
Cc1nc(N)c(C#N)c(-c2cccnc2)c1-c1ccccc1 | 0 | 9% | -2.9% | -1 | 4.2 | 1 | 3
COc1c(C)cc(C(O)c2ncc(-c3cccc4ccccc34)[nH]2)cc1C (stereo not given) | -20 | . | 3.6% | -1 | -1.6 | -18 | .
COc1ccc(-c2csc(NC(=O)CC(NC(C)=O)c3ccccc3)n2)cc1OC (stereo not given) | ? | 27% | 1.3% | -8 | -2.0 | ? | ?
c1csc(CNc2nc(Oc3ccncc3)c3sccc3n2)c1 | ? | . | 0.0% | -6 | -4.8 | -14 | .
CCOC(=O)C1=C[C@@H](C(C)(C)C)N(S(=O)(=O)c2ccc(C)cc2)[C@H]1c1cccc(Cl)c1 | 1 | . | ? | -2 | -5.1 | -4 | .
O=C(COc1coc(CN2CCN(c3ccccc3)CC2)cc1=O)NCC1CCCO1 (stereo not given) | 12 | . | -0.4% | 1 | -2.1 | 6 | ?
CN(C)CCOC(C1CCCCC1)C1CCCCC1 | -6 | 2% | 7.2%[38.3 µM] | -13 | -2.1 | -9 | 1
CCN1C(=O)[C@H]2[C@@H](c3ccc(C)cc3)N3C(=O)N(c4cccc(F)c4)C(=O)[C@@]3(C)[C@H]2C1=O | 4 | 4% | -0.7% | -6 | -2.9 | 3 | -11
O=C(O)c1cccnc1Nc1ccc(Cl)cc1 | 2 | 29% | -1.1% | 5 | -2.2 | -1 | 11
C#CCOCCOCCOCCNc1nc(N2CCN(C(=O)C([C@@H](C)CC)n3cc(C(N)COC(=O)C(F)(F)F)nn3)CC2)nc(N2CCN(C(=O)[C@H](CCCCN)n3cc(C(N)CC(C)C)nn3)CC2)n1 (stereo not given in full) | -1 | . | -0.5% | -74 | -1.6 | -4 | .
CCN(CC)C(=O)[C@H]1C[C@H](CC(=O)NCCN2CCOCC2)C(=O)N2CCc3c([nH]c4cc(-c5ccco5)ccc34)[C@]12C | -4 | . | 0.2% | . | 0.2 | -14 | .
Cc1ccccc1OCC(=O)N1N=C(c2cccnc2)CC1(O)C(F)(F)F (stereo not given) | 16 | 16% | -1.8% | -7 | -0.6 | 4 | 4
c1ccc(CSc2nnc3ccc(-c4cccs4)nn23)nc1 | 2 | -7% | 2.5% | -1 | -6.0 | 1 | 2
CCN1CCN(c2ccc(NC(=O)CCc3c(C)nc4c(-c5ccc(F)cc5)c(C)nn4c3C)cc2)CC1 | . | -3% | -1.2% | -9 | -3.7 | -3 | -11
Cc1cccc(OCCC(=O)Nc2ccc(F)c(Cl)c2)c1 | 10 | 3% | 7.6% | -15 | 1.4 | 29 | 0
CC(=O)N1CCN(S(=O)(=O)c2cccc(C(=O)Nc3cc(C(F)(F)F)ccc3N3CCOCC3)c2)CC1 | 6 | 9% | 1.1% | -1 | -7.3 | 3 | 22
Cc1cccc(CCNC(=O)c2cccc3c2C(=O)N(C2CCCCC2)C3)c1 | 1 | -9% | 9.4% | 10 | -1.5 | 0 | -8
CSc1ccccc1-c1nc(-c2ccncc2)no1 | 5 | -4% | 1.6% | -5 | 0.0 | 11 | 22
CCOc1ccc2oc(C(=O)Nc3cc(C)ccn3)c(C)c2c1 | 1 | . | 5.2% | -28 | -4.8 | -7 | -16
